S aureus helic: inhibitors of S. aureus replicative helicase, primary screen, biochemical, fluorescence unwinding readout; replicative DNA helicase (DnaC/DnaB), Staphylococcus aureus; purified S. aureus helicase, fluorescence unwinding assay; about half of the hits fall short of the stated cut; inhibition, %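 (tested at about 80 µM)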; 0.05% of 120,000 active;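 active means both duplicates at 50% or more, or one of them with a favoured structure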;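 further: 0% = mean of negative control wells and 100% = mean of positive control wells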
MgrA-DNA mod: S. aureus MgrA activity modulators, primary screen, biochemical, S. aureus Newman, fluorescence polarization; MgrA-DNA binding; inhibition, %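 (about 10 µg/mL by stock and volumes)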; 0.13% of 84,000 active;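 active means above 50% in either of two replicates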;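 further: 0% = protein plus DNA without compound and 100% = DNA alone without protein; higher means less MgrA bound to DNA so lower polarization; one replicate is shown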
* hit, by the source's call; nt = no result given; & = joins results of further samples.

SMILES | S aureus helic | MgrA-DNA mod
Cc1ccc2occ(CC(=O)Nc3ccc(S(=O)(=O)N4CC(C)OC(C)C4)cc3)c2c1 (stereo not drawn) | -18.0 | nt
Nc1ccc2[nH]c3ccccc3c2c1 | -3.0 | -6.1
CCCCN1C(=O)c2ccc(C(=O)OCC(=O)N3CCN(c4ccccc4)CC3)cc2C1=O | 0.0 | nt
Cc1nc(C(F)(F)F)nc(Sc2cccc(C(F)(F)F)c2)c1C | nt | 0.3
O=C(CCc1nc2ccccc2s1)OCC(=O)c1ccco1 | 0.0 | nt
COC(=O)c1ccc(NC(=O)CC(CC(=O)O)c2ccccc2)cc1 (stereo not drawn) | 3.0 | -1.7
Cc1ccc2[nH]c3c(c2c1)CCCC3C(N)=O (stereo not drawn) | -12.0 | 3.1
CCOc1ccc(N=C2SC(C(=O)Nc3ccccc3OC)CC(=O)N2Cc2ccc(OC)cc2)cc1 (stereo not drawn) | nt | 1.3
COc1ccccc1NC(=O)CSc1nc2ccccc2cc1C#N | -1.0 | 6.1
CN(C)C(=Nc1ccccc1)P(=O)(c1ccccc1)N(C)C (stereo not drawn) | -3.0 | nt
Cc1coc2cc3oc(=O)cc(C)c3cc12 | -27.0 | nt
CCCCN(C)c1ncnc2c1sc1nc3c(cc12)COC(C)(C)C3 | 16.0 | -6.2
Cn1nc(C(=O)NC2CCN(Cc3ccccc3)CC2)c2c1-c1ccccc1S(=O)(=O)C2 | -29.0 | nt
Cc1c(C(=O)O)[nH]c2c1C(=O)CC(c1ccc(Cl)cc1)C2 (stereo not drawn) | 4.0 | 1.0
Cc1ccc(C)n1-c1sccc1C(=O)Oc1ccc2c(c1)OCO2 | 10.0 | nt
Cc1ccccc1OCCC(=O)Nc1ccc(F)c(Cl)c1 | 12.0 | 3.0
COc1ccc2c(c1)CCc1c(C(=O)N(C)c3ccccc3)noc1-2 | 16.0 | 5.2
CC1=C(C(=O)OCCSc2ccccc2)C(c2ccc3c(c2)OCO3)NC(=O)N1 (stereo not drawn) | nt | -1.5
O=C(COc1ccc(Cl)cc1Cl)NC1CCS(=O)(=O)C1 (stereo not drawn) | 14.0 | 0.3
Cc1ccnc(NC(=O)CCC(=O)O)c1 | -21.0 | nt
O=C(/C=C/c1ccco1)Nc1ccc(N2CCOCC2)cc1 | 17.0 | nt
CCOC(=O)c1ccccc1NC(=O)c1cc2ccccc2o1 | -4.0 | nt
N#CC(C#N)Cc1ccccc1F | nt | -4.5
O=C(COc1ccc(OCc2ccccc2)cc1)NC1CCOC1=O (stereo not drawn) | -5.0 | nt
CC(C)(C)c1ccc(Cn2c(=N)n(CC(O)c3ccco3)c3ccccc32)cc1 (stereo not drawn) | -4.0 | 0.1
Cc1c(C(=O)NCCN2CCOCC2)sc2nc(-c3ccc(F)cc3)cn12 | -5.0 | nt
O=C(Nc1ccc(C(=O)N2CCCc3ccccc32)cc1)c1ccco1 | 1.0 | 0.5
COc1ccc(C(CC(=O)NCc2cccnc2)N2Cc3ccccc3C2=O)cc1 (stereo not drawn) | -22.0 | nt
CNc1ccc2cccc(Oc3ccc4cccc(O)c4n3)c2n1 | 4.0 | 2.6
O=C(Oc1ccc2c(c1)OCO2)N1CCOCC1 | 18.0 | -0.1
CC1CC(=O)c2cnc(N3CC(C)CC(C)C3)nc2C1 (stereo not drawn) | -1.0 | 1.3
COC(=O)c1ccccc1-c1ccc(-c2nc3sc4c(c3c(=O)[nH]2)CCCC4)o1 | -25.0 | nt
C[n+]1c(/C=C/Nc2ccccc2)sc2ccccc21 | 7.0 | 4.0
COc1ccc(CCNC(=O)COc2cccc3c2CCN(Cc2cccnc2)C3=O)cc1OC | 5.0 | nt
O=C(NCCc1ccc(Cl)cc1)c1cc2c(=O)[nH]c3ccccc3c2s1 | 8.0 | 0.9
O=C(O/N=C/c1ccc2c(c1)OCO2)c1cccs1 | nt | 1.8
NNC(=O)COc1ccc(OC(F)(F)F)cc1 | nt | 0.2
CCCCCCCCCCCCCCCCOCC(CO)OC (stereo not drawn) | nt | 0.1
NNC(=O)c1cncc(Br)c1 | nt | 0.3
N#Cc1c(N)cc(N)nc1SCc1ccc(Cl)c(Cl)c1 | 4.0 | nt
O=C(NC(C(=O)O)C12CC3CC(CC(C3)C1)C2)c1ccccc1 (stereo not drawn) | 4.0 | nt
CN(C)/C=N/c1ncnc2c1cnn2-c1ccccc1 | 8.0 | nt
CCOC(=O)C1CCN(S(=O)(=O)c2ccc(-c3cc(C(F)(F)F)no3)s2)CC1 | 17.0 | nt
COc1cc(C(=O)Nc2ccc3oc(-c4ccc(Br)cc4)nc3c2)cc(OC)c1OC | nt | -1.7
O=C(Nc1ccc2sccc2c1)C1CC1 | 5.0 | nt
O=C1c2ccccc2S(=O)(=O)N1CCCCN1C(=O)c2ccccc2S1(=O)=O | nt | -1.1
Cc1ccc(-n2cnc3ccccc32)cc1 | 8.0 | -1.8
c1ccn2c(c1)nc1c2nc2ccccn21 | 15.0 | 0.8
Cc1nc2nc[nH]n2c(=O)c1NS(C)(=O)=O | 6.0 | 2.0
CCOC(=O)N1CC=C2C(C1)C(c1cccc(C(F)(F)F)c1)C(C#N)=C(N)C2(C#N)C#N (stereo not drawn) | 1.0 | -2.0
O=C(NN1CCN(c2ccccc2)CC1)c1cc(Cl)sc1Cl | 18.0 | nt
CC(C)n1c(NCc2cccs2)nc2ccccc21 | 9.0 | nt
Cn1c(=O)oc2cc(S(=O)(=O)NC(Cc3ccccc3)C(=O)NCc3ccco3)ccc21 (stereo not drawn) | 0.0 | -2.2
O=C1c2ccccc2C(Nc2ccccc2)N1c1cccnc1 (stereo not drawn) | 7.0 | 0.7
COc1ccc(-c2cc(C(=O)N3CCC(C(N)=O)CC3)c3ccccc3n2)cc1 | -26.0 | 2.3
COc1ccccc1C(=O)Nc1ccc(S(C)(=O)=O)cc1 | -15.0 | nt
C=CCNC(=O)COc1cccc2c(=O)n(CC)ccc12 | 7.0 | nt
COc1ccc(OCCn2c(NC(=O)c3ccccc3Cl)nc3ccccc32)cc1 | 4.0 | 1.9
Clc1ccc2[nH]c3c(c2c1)CN(Cc1ccccc1)CC3 | 6.0 | -0.2
Nc1ccc(S(=O)(=O)Nc2ccccn2)cc1 | nt | 1.5&4.9

3 entries from above, with values under each structure:
The line under a structure holds: S aureus helic | MgrA-DNA mod
- COc1ccc(-c2cc(C(=O)N3CCC(C(N)=O)CC3)c3ccccc3n2)cc1
    -26.0 | 2.3
- COc1ccccc1C(=O)Nc1ccc(S(C)(=O)=O)cc1
    -15.0 | nt
- C=CCNC(=O)COc1cccc2c(=O)n(CC)ccc12
    7.0 | nt

Next section:
SMILES | S aureus helic | MgrA-DNA mod
N#Cc1c(N)n[nH]c1CCCNC(=O)c1oc2ccccc2c1CSc1ccc(Cl)cc1 | -4.0 | nt
Cc1c(C(C)(C)C)s/c(=N\S(=O)(=O)c2ccc(Cl)cc2)n1C | -4.0 | nt
CCC(=O)N1CCc2cc(Br)cc(S(=O)(=O)NCc3ccccc3OC)c21 | 4.0 | -2.4
COc1ccc(C(C(=O)NC2CCCC2)N(C(=O)c2ccn[nH]2)c2ccc(F)cc2)cc1OC (stereo not drawn) | -11.0 | -1.8
CCCn1c(N)c(NCCN2CCOCC2)c(=O)n(CC(=O)NCc2ccccc2)c1=O | 9.0 | nt
CCC(=O)c1ccccc1OCC(=O)Nc1c(F)c(F)c(F)c(F)c1F | -20.0 | -0.8
O=C(CSc1nc2ccccc2c(=O)[nH]1)NCCO | 21.0 | nt
c1nncn1N=C1CCCCC1 | 8.0 | -2.0
CCn1c(CCc2ccccc2)nnc1SCC(N)=O | 0.0 | 0.8
COc1ccc(CCC(=O)Nc2nc3ccccc3[nH]2)cc1OC | -7.0 | nt
C=CCc1ccc(OCCOCCN2CCN(C)CC2)c(OC)c1 | -10.0 | nt
O=C(CN1CCC2(CC1)OCCO2)Nc1ccccc1 | -5.0 | -0.3
Cn1c(=O)[nH]c(=O)c2[nH]c(NCCO)nc21 | -3.0 | 1.2
COc1ccccc1NC(=O)Nc1ccnn1C1CCCCC1 | 12.0 | nt
Cc1cccn2c(N)c(-c3ccccc3)nc12 | -11.0 | nt
O=c1c2ccccc2nc(-c2ccc(F)cc2)n1NCc1ccccc1O | 34.0 | nt
COc1ccc(C2C(=O)N(CCc3ccccc3)CC(=O)N2Cc2ccc3c(c2)OCO3)cc1 (stereo not drawn) | -7.0 | nt
COc1ccccc1CN(C)C(=O)c1cc(C)nc2ccccc12 | -3.0 | nt
CCOC(=O)c1c(NC(=O)/C=C\C(=O)O)sc(C)c1-c1ccccc1 | -19.0 | nt
CC(C)=NNS(=O)(=O)c1ccc(N2CCCC2=O)cc1 | 14.0 | -2.6

Look-ups from the list.
In S aureus helic, O=C(CN1CCC2(CC1)OCCO2)Nc1ccccc1 is listed with -5.0
In MgrA-DNA mod, COc1ccc2c(c1)CCc1c(C(=O)N(C)c3ccccc3)noc1-2 is listed with 5.2
In S aureus helic, CCOC(=O)N1CC=C2C(C1)C(c1cccc(C(F)(F)F)c1)C(C#N)=C(N)C2(C#N)C#N (stereo not drawn) is listed with 1.0
In S aureus helic, Cc1c(C(=O)NCCN2CCOCC2)sc2nc(-c3ccc(F)cc3)cn12 is listed with -5.0

Next part
SMILES | S aureus helic | MgrA-DNA mod
CC(C)(C)c1ccccc1NC(=O)c1cccc(Cn2cc(Cl)cn2)c1 | -1.0 | -6.3
CCCC(C)C(=O)Nc1ccc(S(N)(=O)=O)cc1 (stereo not drawn) | 7.0 | -8.7
CCCCC(=O)N1c2ccccc2C(Nc2ccccc2)CC1C (stereo not drawn) | 3.0 | -1.9
COc1ccc(-c2ccc(/C=C3\C(=O)N(c4cccc(Br)c4)N=C3C)o2)c([N+](=O)[O-])c1 | nt | -3.3
Cc1cc(C)c(C#N)c(OC(=O)c2ccccc2Cl)n1 | nt | 7.8
COc1ccc(NC(c2ccccn2)c2oc(CO)cc(=O)c2O)cc1 (stereo not drawn) | 8.0 | 10.0
CCCN1C(=O)C(NC(C)=O)c2cc(C)ccc21 (stereo not drawn) | -5.0 | 1.0
CCOC(=O)C(CC)n1cnc2c(nnn2-c2cccc(Cl)c2)c1=O (stereo not drawn) | 5.0 | nt
COc1ccc(NC(=O)CN2C(=O)/C(=C/c3cc(OC)c(OC)c(OC)c3)SC2=S)cc1 | nt | -0.2
O=C(c1cn(CCOc2ccccc2)c2ccccc12)C1CC1 | 8.0 | -2.5
Brc1ccc2nc(CSc3nnc4ccccn34)cn2c1 | 6.0 | 2.7
O=C(NCCC1=CCCCC1)Nc1noc2c1COc1ccccc1-2 | 2.0 | nt
O=C1CC(c2cccc3ccccc23)C2=C(CCCC2=O)N1 (stereo not drawn) | 8.0 | nt
CCN(CC)S(=O)(=O)c1ccc(N2C(=O)Nc3ccccc3N2O)cc1 | 6.0 | nt
Fc1ccc(-c2cn3cccc(OCc4ccc(Cl)c(Cl)c4)c3n2)cc1 | nt | 0.2
COc1ccc(C2CC(=O)C(C=NC3CCCC3)=C(O)C2)cc1 (stereo not drawn) | 3.0 | 0.3
CN(C)c1ccc(Nc2nc3ccccc3nc2NS(=O)(=O)c2cccs2)cc1 | -8.0 | nt
COCCN1C(=O)c2ccccc2C(C(=O)N2CCN(c3ccccc3)CC2)C1c1c[nH]c2ccccc12 (stereo not drawn) | 15.0 | nt
Cc1c(N=CC(O)CN2CC3CC(C2)c2cccc(=O)n2C3)c(=O)n(-c2ccccc2)n1C (stereo not drawn) | 1.0 | 4.0
CC(NC(=O)c1cc(=O)[nH]c2ccc(S(=O)(=O)N3CCOCC3)cc12)C12CC3CC(CC(C3)C1)C2 (stereo not drawn) | 3.0 | nt

Some of these compounds in order of their number in S aureus helic, low to high.
SMILES | S aureus helic | MgrA-DNA mod
O=C(NCCC1=CCCCC1)Nc1noc2c1COc1ccccc1-2 | 2.0 | nt
CCCCC(=O)N1c2ccccc2C(Nc2ccccc2)CC1C (stereo not drawn) | 3.0 | -1.9
CCOC(=O)C(CC)n1cnc2c(nnn2-c2cccc(Cl)c2)c1=O (stereo not drawn) | 5.0 | nt

The results go on.
SMILES | S aureus helic | MgrA-DNA mod
Cc1ccc(C(=O)OCc2ccc(C#N)cc2)c(O)c1 | -4.0 | nt
Cc1cc(C)nc(N2CCC(C(O)(c3ccccc3)c3ccccc3)CC2)n1 | 0.0 | -2.5
COc1cc(/C=C2\C(=O)N(c3ccc(S(N)(=O)=O)cc3)N=C2C)cc(Cl)c1OCc1ccccc1 | nt | 3.3
c1ccc(-c2nsc(NC3Cc4ccccc4C3)n2)cc1 | nt | -1.5
S=c1oc(COc2ccccc2Cl)nn1CN1CCOCC1 | 13.0 | nt
Cc1ccc(N2CC(C(=O)Nc3nnc(SCC(=O)NCc4ccco4)s3)CC2=O)cc1C (stereo not drawn) | -2.0 | nt
CCCn1c(=O)n(C)c(=O)c2c3oc(=O)c(NC(=O)c4ccccc4)cc3[nH]c21 | -27.0 | nt
CCOC(=O)COc1nc(-c2ccccc2)cc(C(F)(F)F)c1C#N | nt | -0.7
Cc1noc(C)c1NC(=O)NC1Cc2ccccc2C1 | 2.0 | nt
CC(C)Cc1ccc(C2=CC(c3ccc(C#N)cc3)C(C(N)=O)C(=O)N2)cc1 (stereo not drawn) | nt | 1.0
CCc1cn[nH]c1-c1c(F)cccc1F | nt | -0.2
N#Cc1cnn(-c2ncnc3sc4c(c23)CCCC4)c1N | nt | -1.5
COc1ccc(N=Cc2cn(-c3ccccc3)nc2-c2ccccc2)cc1 | -6.0 | 3.2
O=C(CCn1ccc2cc(S(=O)(=O)N3CCCCC3)ccc21)N1CCc2ccccc2C1 | -6.0 | nt
CC(C)c1ccc(OCC(=O)N2CCCc3ccccc32)cc1 | 10.0 | 0.9
O=C1CCc2cc(OCc3ccc(Cl)cc3)ccc2O1 | 8.0 | 0.6
CCn1c(C)nc2cc(S(=O)(=O)N(C)C)ccc21 | -34.0 | nt
O=C(Oc1cccc2[nH]ccc12)c1ccc(C(F)(F)F)cc1 | nt | -0.1
O=C(Cn1cnc2ccccc2c1=O)NCCC(=O)N1CCN(Cc2ccccc2)CC1 | 39.0 | nt

Assay outcomes deposited in PubChem by ICCB-Longwood Screening Facility, Harvard Medical School.

An excerpt (hit frequency here may not be typical).
